FGF22 binding = shifts melting point of recombinant human FGF22; calls only at 9.99 µM; Q9HCT0; actives 1.5% (n = 340,000); recombinant FGF22 thermal shift, SYPRO orange fluorescence; percent of sucrose octasulfate shift, DMSO zero;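 active = melting point raised past a set limit in the mean and every replicate; three in four hits are not shown here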
Target sequence (Q9HCT0 whole entry, looked up): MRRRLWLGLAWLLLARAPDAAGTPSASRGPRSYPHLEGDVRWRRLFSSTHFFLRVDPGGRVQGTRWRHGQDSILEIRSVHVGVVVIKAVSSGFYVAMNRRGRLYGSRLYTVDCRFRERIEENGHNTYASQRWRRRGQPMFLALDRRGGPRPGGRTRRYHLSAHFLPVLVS
AF4-AF9 inh = MLL-AF4/AF9 protein interaction inhibition. P42568. AlphaScreen, biotin-AF4 peptide binding to FLAG-AF9. inhibition, % at 10 µM. actives 0.47% (n = 350,000);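 active = every replicate reaching a set inhibition limit, whatever the replicate mean, cut at about 25% in these data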;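 also: 0% = plate neutral control median and 100% = total signal loss; the record names both 10 and 1 µM as test concentration; the first replicate is given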
Target sequence (P42568 whole entry, looked up): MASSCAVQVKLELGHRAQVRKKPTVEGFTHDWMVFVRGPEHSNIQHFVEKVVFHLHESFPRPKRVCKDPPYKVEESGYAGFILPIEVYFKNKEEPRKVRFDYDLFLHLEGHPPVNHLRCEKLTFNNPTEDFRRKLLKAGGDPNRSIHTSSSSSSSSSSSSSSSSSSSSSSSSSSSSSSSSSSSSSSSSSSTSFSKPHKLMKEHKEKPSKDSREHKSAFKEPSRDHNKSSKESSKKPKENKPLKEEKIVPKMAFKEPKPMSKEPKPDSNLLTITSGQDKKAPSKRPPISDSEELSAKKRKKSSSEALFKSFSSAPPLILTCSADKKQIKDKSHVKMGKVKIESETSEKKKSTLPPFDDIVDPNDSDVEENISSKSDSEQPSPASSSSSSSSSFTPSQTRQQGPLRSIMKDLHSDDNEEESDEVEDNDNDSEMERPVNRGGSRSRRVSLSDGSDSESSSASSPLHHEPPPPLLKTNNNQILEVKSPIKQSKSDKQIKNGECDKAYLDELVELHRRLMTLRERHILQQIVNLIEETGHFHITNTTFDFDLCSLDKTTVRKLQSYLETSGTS
Ecoli rRNA inh = inhibitors of bacterial rRNA selective over humanized ribosomes; E. coli WT GFP vs humanized-ribosome RFP mutants, fluorescence, 24 h; hits give low values; DMSO median 0, no signal -100; GFP signal change (wild-type ribosome), % (no concentration beside the values); actives 1.6% (n = 350,000); AID 720706;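 active = significant combined selectivity score with lowered wild-type GFP, culture density cut under 30%, mutant RFP and density less affected; inactive = any of these conditions unmet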; also: one replicate is shown; some compounds called inactive have numbers as strong as hits
Ecoli rRNA inh OD600 = further read-out of Ecoli rRNA inh, marked with its call; OD600 change, %; measured here: OD600 growth;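 optical density of the mix in the first replicate; 0 = DMSO median and -100 = no signal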
Ecoli rRNA inh RFP = second read-out of Ecoli rRNA inh, no call of its own (marks repeat the call); RFP signal change, %; measured here: RFP humanized mutant strains;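 first replicate; 0 = DMSO median and -100 = no signal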
An asterisk follows results filed as active; i = inactive; + = active, no number; & = joins results of further samples.

Order of results: FGF22 binding	AF4-AF9 inh	Ecoli rRNA inh	Ecoli rRNA inh OD600	Ecoli rRNA inh RFP
> COc1ccc(CN(C)C[C@@H]2Oc3c(NS(=O)(=O)c4ccc(F)cc4)cccc3C(=O)N([C@@H](C)CO)C[C@@H]2C)cc1
→ i	-0.4	-2	0	-2.2
> Cc1ccc(S(=O)(=O)Nc2ccc3c(c2)C(=O)N([C@H](C)CO)C[C@@H](C)[C@@H](CN(C)Cc2ccc4c(c2)OCO4)OCCCC[C@@H](C)O3)cc1
→ i	10	1	-31	14
> C[C@@H]1CCCCO[C@@H](CN(C)C(=O)Nc2cccc3ccccc23)[C@@H](C)CN([C@@H](C)CO)C(=O)c2cc(NC(=O)Nc3cccc4ccccc34)ccc2O1
→ i	0.2	7	12	-0.8
> Cc1noc(C)c1NC(=O)N(C)C[C@@H]1Oc2c(NC(=O)Nc3ccc4c(c3)OCO4)cccc2C(=O)N([C@@H](C)CO)C[C@@H]1C
→ i	0.5	2	4	0.7
> O=C(C[C@H]1CC[C@H]2[C@@H](COC[C@@H](O)CN2C(=O)Nc2ccc(F)cc2)O1)NCCc1ccccc1
→ i	-0.6	-6	-10	0.5
> C[C@@H]1CCCCO[C@H](CN(C)Cc2ccccc2)[C@@H](C)CN([C@@H](C)CO)C(=O)c2cc(NC(=O)NC3CCCCC3)ccc2O1
→ i	6.5	3	-12	2.3
> CC1(Oc2ccc(-n3ccnc3)cc2)CCN(Cc2cccn2-c2nccs2)C1 (centres undefined)
→ i	6.8	19	3	10
> C[C@@H]1CCCCO[C@@H](CN(C)C)[C@@H](C)CN([C@H](C)CO)C(=O)c2cc(NC(=O)c3ccncc3)ccc2O1
→ i	-2.8	5	12	-2.8
> C[C@@H]1CCCCO[C@H](CN(C)Cc2ccc(C(=O)O)cc2)[C@@H](C)CN([C@@H](C)CO)C(=O)c2cc(NC(=O)Nc3ccccc3)ccc2O1
→ i	-9.1	-2	-9	-3.0
> COc1ccc(CN(C)C[C@@H]2OCCCC[C@H](C)Oc3ccc(NC(=O)Nc4cccc5ccccc45)cc3C(=O)N([C@@H](C)CO)C[C@@H]2C)cc1
→ i	-2.8	2	6	3.1
> C[C@H](NC(=O)C[C@@H]1CC[C@@H]2[C@H](COC[C@H](O)CN2Cc2cc(F)ccc2F)O1)c1ccccc1
→ i	-0.9	-4	-17	1.2
> C[C@@H]1CN([C@H](C)CO)S(=O)(=O)c2ccc(-c3ccccc3)cc2O[C@H]1CN(C)Cc1ccccn1
→ i	9.5	-43	-66	-0.2
> COc1ccc(NC(=O)N(C)C[C@H]2OCCCC[C@H](C)Oc3ccc(NC(=O)Nc4ccc5c(c4)OCO5)cc3C(=O)N([C@H](C)CO)C[C@@H]2C)cc1
→ i	2.1	0	1	-0.7
> C[C@@H]1CN([C@@H](C)CO)C(=O)c2cc(-c3ccccc3F)cnc2O[C@@H]1CN(C)C(=O)c1cnccn1
→ i	-3.3	3	7	-1.7
> Fc1ccc(-c2nc3c(Cl)cc(C(F)(F)F)cn3c2Cc2cccc(F)c2)cc1
→ i	-0.5	1	-1	-2.3
> CN(C)CC(=O)N[C@@H]1CC[C@H](CCn2cc(C3CCCCC3)nn2)O[C@@H]1CO
→ i	-1.8	-3	6	-0.9
> O=C(C[C@H]1CC[C@@H](NC(=O)CC2CC2)[C@@H](CO)O1)NCC(F)(F)F
→ i	2.8	1	4	-1.0
> CC(C)NC(=O)N1C[C@H]2[C@@H](c3ccccc31)[C@@H](CO)N2C(=O)Nc1ccccc1
→ i	0.0	3	2	-3.9
> NC(Cc1ccccc1)c1csc(Nc2nncc3ccccc23)n1 (centres undefined)
→ i	7.9	-60	-76	-20
> COc1ccccc1Cc1c(-c2ccc(F)cc2)nc2cc(C)c(Br)c(C)n12
→ i	0.7	2	14	11
> CC(C)NC(=O)C1C(c2ccc(C(F)(F)F)cc2)=Nc2ccccc2N1C(=O)c1cccc(C(F)(F)F)c1 (centres undefined)
→ i	0.2	6	-2	-7.7
> COc1ccc2c3c(n(C)c2c1)[C@@H](CO)N(C(C)=O)CC31CN(Cc2ccccc2OC)C1
→ i	-1.4	0	-7	1.7
> CC1(C(=O)NS(=O)(=O)c2ccc(Cl)cc2)CCN1C(=O)Cc1cc(F)ccc1F (centres undefined)
→ i	-1.9	2	13	-1.9
> CC(C)NC(=O)Nc1ccc2c(c1)C(=O)N([C@H](C)CO)C[C@H](C)[C@@H](CN(C)C)OCCCC[C@H](C)O2
→ i	-2.7	1	1	-0.1
> CC(C)(C)c1ccc(C(O)c2ncc(-c3cccc(F)c3)[nH]2)cc1 (centres undefined)
→ i	8.6	-43	-75	-13
> CO[C@H]1CC[C@H]2CCN(C)C(=O)[C@H](C)CN(C)C(=O)c3cccc(C#N)c3OC[C@H]1O2
→ i	2.0	4	2	-1.1
> Cc1cccc(S(=O)(=O)N[C@@H]2CC[C@@H](CCNS(=O)(=O)c3ccccc3F)O[C@H]2CO)c1
→ i	-3.1	-7	-11	-0.1
> O=C1CNC[C@H]2[C@@H](c3ccc(C#Cc4cccnc4)cc3)[C@@H](CO)N12
→ i	-5.5	3	18	-5.8
> CCCN1C[C@H](C)[C@H](OC)CN(C)C(=O)c2cc(NC(=O)c3cnccn3)ccc2OC[C@H]1C
→ i	-3.9	2	4	-1.0
> CC(C)NC(=O)C1(C)CSCC(=O)N1Cc1ccco1 (centres undefined)
→ i	-12	4	1	0.1
> Cc1ccc(-c2ccc3c(c2)O[C@H](CN(C)C(=O)Nc2ccccc2)[C@@H](C)CN([C@@H](C)CO)S3(=O)=O)cc1
→ i	4.8	-5	-11	8.1
> Cc1cccc(-c2ccc([C@H]3[C@@H](CO)N4CCCCN(Cc5ccncc5)C[C@@H]34)cc2)c1
→ i	-1.7	-3	-5	5.6
> COCC(=O)N1C[C@@H](C)[C@H](OC)CN(C)C(=O)c2ccc(NC(=O)c3ccc(-c4ccccc4)cc3)cc2OC[C@H]1C
→ i	-1.1	-9	-12	4.3
> COc1ccc(OC)c(NC(=O)COc2cc(O)c3c(c2)OC(C)(C)CC3=O)c1
→ i	5.3	-2	11	9.6
> C[C@@H]1CCCCO[C@H](CN(C)S(=O)(=O)c2cccs2)[C@H](C)CN([C@H](C)CO)C(=O)c2cc(NS(C)(=O)=O)ccc2O1
→ i	-1.5	-2	-18	2.6
> O=C(Nc1ccc2c(c1)OCO2)N[C@H]1CC[C@@H](CC(=O)N2CCN(c3ccccc3)CC2)O[C@H]1CO
→ i	2.1	-4	-6	-0.8
> FC(F)(F)c1cc(Cl)c2nc(-c3ccccc3)c(Cc3ccsc3)n2c1
→ i	0.5	-10	-13	4.4
> Cc1ccccc1-c1cnc2c(c1)C(=O)N([C@@H](C)CO)C[C@H](C)[C@@H](CN(C)Cc1cccnc1)O2
→ i	-3.0	-3	5	-2.0
> O=C(NCC[C@@H]1CC[C@@H](NC(=O)c2cccnc2)[C@@H](CO)O1)Nc1ccc(C(F)(F)F)cc1
→ i	20	-2&-60	3&-80	-1.8&-19
> COc1ccc(NC(=O)Nc2ccc3c(c2)CC(=O)N([C@@H](C)CO)C[C@H](C)[C@H](CN(C)C(=O)Nc2ccc4c(c2)OCO4)O3)cc1
→ i	0.4	0	2	0.4
> CO[C@H]1CN(C)C(=O)c2cc(NS(=O)(=O)c3ccc(F)cc3)ccc2OC[C@H](C)NC[C@@H]1C
→ i	-3.2	-1	1	-1.7
> C[C@H](CO)N1C[C@H](C)[C@@H](CN(C)C)OCCCC[C@H](C)Oc2ccc(N(C)C)cc2C1=O
→ i	-2.5	2	5	-0.9
> COP(=O)(OC)C(=NNS(=O)(=O)c1ccc(C)cc1)c1ccccc1
→ i	-2.8	4	13	3.7
> Cc1ccc(S(=O)(=O)Nc2ccc3c(c2)C(=O)N([C@@H](C)CO)C[C@@H](C)[C@@H](CN(C)S(=O)(=O)c2ccc(F)cc2)O3)cc1
→ i	-0.1	-5	-16	3.1
> O=C(Cc1ccncc1)N1CC[C@@H]2[C@H](CO)Nc3ccc(-c4ccccc4F)cc3[C@@H]21
→ i	-2.7	-2	-2	2.3
> COc1ccc(NC(=O)Nc2ccc3c(c2)C(=O)N([C@@H](C)CO)C[C@@H](C)[C@@H](CN(C)S(=O)(=O)c2ccccc2)OCCCC[C@@H](C)O3)cc1
→ i	-2.5	0	-2	-1.8
> CC1(C(=O)NS(=O)(=O)c2ccc(F)cc2F)CCN1C(=O)Cc1ccc(-c2ccccc2)cc1 (centres undefined)
→ i	-6.7	-4	3	-0.3
> COc1cccc(CNC(=O)[C@H]2CCCN2C(=O)[C@H]2CCCN2C(=O)c2ccccc2C(F)(F)F)c1
→ i	1.2	20	22	5.0
> Cc1ccc(S(=O)(=O)N(C)C[C@@H]2Oc3c(NS(=O)(=O)c4cccs4)cccc3C(=O)N([C@H](C)CO)C[C@@H]2C)cc1
→ i	-3.0	-3	-9	-0.3
> CC(OC(=O)C1=Cc2ccccc2OC1)C(=O)NCC1CCCO1 (centres undefined)
→ +	-0.2	2	-5	13
> Cc1ccc(S(=O)(=O)N(C)C[C@H]2Oc3c(NC(=O)C4CCOCC4)cccc3C(=O)N([C@@H](C)CO)C[C@@H]2C)cc1
→ i	0.6	5	11	-0.2
> O=C1c2ccccc2C(=O)N1c1ccccc1
→ i	-2.0	3	2	-1.2
> C[C@@H]1CCCCO[C@@H](CN(C)C(=O)Nc2cccc3ccccc23)[C@@H](C)CN([C@H](C)CO)C(=O)c2cc(NC(=O)c3ccccc3)ccc2O1
→ i	-2.0	4	1	-3.0
> COc1cccc(CNC(=O)[C@@H]2[C@@H](CO)[C@@H]3Cn4c(cccc4=O)[C@H]2N3C(=O)C2CCC2)c1
→ i	-0.4	1	10	-2.4
> CC(C)NC(=O)Nc1ccc2c(c1)C(=O)N([C@@H](C)CO)C[C@H](C)[C@H](CN(C)S(=O)(=O)c1ccc(F)cc1)O2
→ i	4.7	4	7	0.6
> CO[C@H]1CN(C)C(=O)c2ccc(NC(=O)c3ccc4c(c3)OCO4)cc2OC[C@H](C)N(CC2CC2)C[C@@H]1C
→ i	1.7	1&0&5	-3&-6&-5	1.7&-1.5&2.8
> Cc1noc(C)c1NC(=O)N(C)C[C@H]1Oc2ccc(NC(=O)CCCN(C)C)cc2C(=O)N([C@@H](C)CO)C[C@@H]1C
→ i	-3.0	-3	4	-0.9
> CCCNC(=O)N1CC(=O)N2[C@@H](CO)[C@@H](c3ccc(C#Cc4cccc(OC)c4)cc3)[C@@H]2C1
→ i	-2.7	-7	-13	2.5
> COc1cccc(-c2ccc3c(c2)O[C@H](CN(C)Cc2cncnc2)[C@@H](C)CN([C@H](C)CO)S3(=O)=O)c1
→ i	2.5	-7	-12	1.8
> N#C[C@H]1[C@@H](c2ccc(-c3cccc(F)c3)cc2)[C@H](CO)N1C(=O)c1cccnc1
→ i	-1.9	-1	-18	0.7

Look-ups from above.
In Ecoli rRNA inh, C[C@@H]1CCCCO[C@H](CN(C)S(=O)(=O)c2cccs2)[C@H](C)CN([C@H](C)CO)C(=O)c2cc(NS(C)(=O)=O)ccc2O1 reads -2
In AF4-AF9 inh, O=C(Cc1ccncc1)N1CC[C@@H]2[C@H](CO)Nc3ccc(-c4ccccc4F)cc3[C@@H]21 reads -2.7
In Ecoli rRNA inh, O=C1c2ccccc2C(=O)N1c1ccccc1 reads 3
In Ecoli rRNA inh, CC1(C(=O)NS(=O)(=O)c2ccc(F)cc2F)CCN1C(=O)Cc1ccc(-c2ccccc2)cc1 (centres undefined) reads -4
In Ecoli rRNA inh RFP, C[C@@H]1CCCCO[C@@H](CN(C)C(=O)Nc2cccc3ccccc23)[C@@H](C)CN([C@H](C)CO)C(=O)c2cc(NC(=O)c3ccccc3)ccc2O1 reads -3.0

(cont.)
Order of results: FGF22 binding	AF4-AF9 inh	Ecoli rRNA inh	Ecoli rRNA inh OD600	Ecoli rRNA inh RFP
> COc1ccc2c3c([nH]c2c1)[C@H](CO)N(C(=O)Nc1ccc(F)cc1)CC31CN(S(=O)(=O)c2cccc(C)c2)C1
→ i	0.3	-4	-12	3.5
> C[C@@H]1CCCCO[C@@H](CN(C)C(=O)Nc2ccc3c(c2)OCO3)[C@H](C)CN([C@H](C)CO)C(=O)c2cc(NC(=O)c3ccncc3)ccc2O1
→ i	-2.7	-3	-6	-2.0
> C[C@@H]1CCCCO[C@@H](CN(C)C(=O)CCC(F)(F)F)[C@@H](C)CN([C@H](C)CO)C(=O)c2cc(NC(=O)CCC(F)(F)F)ccc2O1
→ i	-4.7	7	12	0.5
> COc1ccc(CN2C(=O)CCC2(C)c2nnnn2-c2ccc3c(c2)OCCO3)cc1OC (centres undefined)
→ i	-5.2	2	8	1.2

In the list so far, two contain an NH in an aromatic ring:
Order of results: FGF22 binding	AF4-AF9 inh	Ecoli rRNA inh	Ecoli rRNA inh OD600	Ecoli rRNA inh RFP
> CC(C)(C)c1ccc(C(O)c2ncc(-c3cccc(F)c3)[nH]2)cc1 (centres undefined)
→ i	8.6	-43	-75	-13
> COc1ccc2c3c([nH]c2c1)[C@H](CO)N(C(=O)Nc1ccc(F)cc1)CC31CN(S(=O)(=O)c2cccc(C)c2)C1
→ i	0.3	-4	-12	3.5

Compound activity deposited in PubChem by Broad Institute.

Not all compounds are listed, so the mix of outcomes need not match the whole.
